YB-1 expr inh: YB-1 expression inhibition. U2OS, qRT-PCR YB-1 vs CDIP delta delta Cp, 16 h; hits give high values; zero = DMSO, each unit about twofold. delta delta Cp (YB-1 minus CDIP) (no concentration beside the values). 0.37% of 30,000 active. AID 434959;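 active = delta delta Cp rounded down to an integer at or above 3, about 3 SD of DMSO wells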;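 note: higher means less YB-1 transcript or more CDIP transcript relative to DMSO; stock transfer was 100 nL into about 100 µL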
PD-1 reversal: activators reversing PD-1 mediated T-cell inhibition | primary human CD4 T cells, PD-L1 beads, CellTiter-Glo 96 h | activation, % (no concentration beside the values) | 29,000 tested, under 10 active | AID 2316;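 active = replicate mean of 50% or more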;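 note: 0% = median vehicle wells and 100% = positive control; 100 nL library stock added to about 50 µL; numbers are from one replicate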
MITF inhib: MITF inhibition. TRPM1 promoter luciferase, luminescence, 24 h. inhibition, % (no concentration beside the values). 0.28% of 37,000 active;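 active = most replicates at 85% or more, or half of them and the mean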;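 note: human melanocyte line stably carrying TRPM1 promoter luciferase reporter; 0% = vehicle wells and 100% = a positive control; the first replicate is given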
Shh pathway inh: Sonic Hedgehog pathway inhibition | Shh-LIGHT2 Gli-luciferase reporter, 30 h | inhibition, % (concentration not given with the values) | 2.1% of 22,000 active | AID 2313;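 active = replicate mean of 65% or more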;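 note: pathway switched on by Shh-conditioned medium diluted 1 in 25 in low serum; 100 nL library stock added to about 40 µL; 0% = median of neutral wells and 100% = positive control level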
Active calls of the source: *; / = no result given. This is a subset (hit frequency here may not be typical).

SMILES	YB-1 expr inh	PD-1 reversal	MITF inhib	Shh pathway inh
C[C@H]1CN([C@@H](C)CO)C(=O)c2cc(NC(=O)NC3CCCCC3)ccc2O[C@H]1CN(C)C(=O)Nc1ccc(C(F)(F)F)cc1	0.15	-3.2	12	-26
COc1cc(-c2cc(=O)c3c(O)c(OC)c(OC)cc3o2)cc(OC)c1O	/	-3.8	-4	-8
Cc1noc(C)c1NC(=O)N(C)C[C@@H]1Oc2c(NS(=O)(=O)c3ccc(Cl)cc3)cccc2C(=O)N([C@H](C)CO)C[C@H]1C	-0.14	/	5	-34
COc1ccc(OC)c(NC(=O)c2c(NC(=O)CN3CCCC(C)C3)sc3c2CCC3)c1 (stereo not drawn)	/	-1.2	30	/
O=C(Cn1cccc(C(F)(F)F)c1=O)c1ccc(Cl)cc1	0.01	1.4	-1	5
CC(Oc1ccc(C(C)(C)C)cc1)C(=O)Nc1ncn[nH]1 (stereo not drawn)	/	0.5	-30	/
C[C@H]1CN([C@@H](C)CO)C(=O)c2cc(N(C)C)ccc2O[C@H]1CN(C)S(=O)(=O)c1ccc(F)cc1	-0.045	5.0	-10	/
COC(=O)c1cc(-c2ccccc2)sc1NC(=S)Nc1cn(C)nc1C	/	-1.5	-3	/
Cc1noc(C)c1NC(=O)Nc1ccc2c(c1)C(=O)N([C@H](C)CO)C[C@@H](C)[C@@H](CN(C)C(=O)NC(C)C)O2	0.15	0.3	-13	-44
C[C@@H]1CN([C@@H](C)CO)C(=O)c2cccc(NS(C)(=O)=O)c2O[C@@H]1CN(C)C(=O)Nc1cccc2ccccc12	1.6	1.7	0	-15
C[C@H]1CN([C@@H](C)CO)C(=O)c2cccc(NC(=O)CCCCCC(=O)Nc3ccccc3N)c2O[C@@H]1CN(C)Cc1ccc2c(c1)OCO2	0.02	1.1	52	/
C[C@H]1CN([C@@H](C)CO)C(=O)c2cccc(NS(=O)(=O)c3ccccc3)c2O[C@H]1CN(C)S(=O)(=O)c1ccccc1	-0.053	1.7	-3	22
O=C(O)c1cc2cc(F)ccc2[nH]1	0.22	/	-10	-24
Cc1cc(C)c(NC(=O)CN(c2cc(Cl)cc(Cl)c2)S(C)(=O)=O)c(C)c1	/	0.8	-5	/
O=C(Nc1ccc(S(=O)(=O)NC23CC4CC(CC(C4)C2)C3)cc1)C1CC1	-0.18	2.1	4	-2
COc1ccc(CN(C)C[C@H]2Oc3c(NS(=O)(=O)c4ccc(F)cc4)cccc3C(=O)N([C@H](C)CO)C[C@@H]2C)cc1	0.027	1.2	-14	-5
Cc1ccc(S(=O)(=O)Nc2ccc3c(c2)C(=O)N([C@H](C)CO)C[C@@H](C)[C@@H](CN(C)C(=O)Nc2c(C)noc2C)O3)cc1	-0.034	0.3	3	/
C[C@H](CO)N1C[C@H](C)[C@H](CN(C)S(=O)(=O)c2cn(C)cn2)Oc2c(NC(=O)NC3CCCCC3)cccc2C1=O	-0.083	0.9	-2	3
COc1ccc(NC(=O)CN(c2ccc(Cl)cc2)S(C)(=O)=O)cc1Cl	/	-0.1	4	/
COc1ccc(NC(=O)N(C)C[C@H]2Oc3c(NC(=O)C4CC4)cccc3C(=O)N([C@H](C)CO)C[C@H]2C)cc1	-0.091	0.5	-4	-10
COC(=O)c1cc(OC)c(OC)cc1NC(=O)CCN1C(=O)c2ccccc2C1=O	/	-1.0	-17	/
O=C(CSc1nnc(-c2ccncc2)n1-c1cccc(C(F)(F)F)c1)c1ccc(F)cc1	/	-1.6	-20	/
CC(C(=O)N1CCN(C)CC1)N(c1ccccc1)S(C)(=O)=O (stereo not drawn)	/	1.0	-24	/
Cc1cccc(-c2noc(CN(C(=O)c3ccc([N+](=O)[O-])c(C)c3)C(C)C)n2)c1	/	-9.6	40	/
C[C@H]1CN([C@@H](C)CO)C(=O)Cc2cc(NC(=O)Cc3ccccc3)ccc2O[C@H]1CN(C)C(=O)Nc1ccc(F)cc1	-0.11	/	-4	-2
COc1ccc(CN(C)C[C@@H]2Oc3ccc(NC(=O)Nc4ccc5c(c4)OCO5)cc3CC(=O)N([C@H](C)CO)C[C@@H]2C)cc1	0.2	/	9	3
CC(C)NC(=O)N(C)C[C@H]1Oc2c(cccc2N(C)C)C(=O)N([C@@H](C)CO)C[C@H]1C	-0.7	1.5	2	49
C[C@@H]1CN([C@@H](C)CO)C(=O)Cc2cc(NC(=O)C3CCCCC3)ccc2O[C@@H]1CN(C)S(=O)(=O)c1ccccc1	0.23	-0.1	-11	-6
COc1ccc(S(=O)(=O)N(C)C[C@H]2Oc3ccc(NC(=O)C4CC4)cc3C(=O)N([C@H](C)CO)C[C@H]2C)cc1	-0.14	0.3	-12	12
COc1ccc(NC(=O)Nc2ccc3c(c2)C(=O)N([C@H](C)CO)C[C@@H](C)[C@@H](CN(C)S(=O)(=O)c2cn(C)cn2)O3)cc1	0.028	1.0	1	-7
CCOC(=O)c1cc(-c2ccccc2)sc1NC(=S)Nc1cnn(CC)c1C(N)=O	/	3.2	-36	/
C[C@@H]1CN([C@H](C)CO)C(=O)c2cc(NC(=O)c3ccncc3)ccc2O[C@@H]1CN(C)Cc1ccc(C(=O)O)cc1	0.1	0.1	-6	-21
O=C(O)/C=C/c1ccc(-c2ccc(Br)cc2)o1	0.26	-0.7	-1	/
CSC(=Nc1ccccc1C(F)(F)F)N1CCCC1	-0.059	-2.2	-5	-13
COc1ccc(CN(C)C[C@H]2Oc3c(NC(=O)c4cnccn4)cccc3C(=O)N([C@@H](C)CO)C[C@@H]2C)cc1	-0.61	-0.8	-6	9
CCSc1ccccc1C(=O)Nc1ccc(S(=O)(=O)Nc2ncccn2)cc1	/	0.1	-17	/
Cc1noc(C)c1NC(=O)Nc1cccc2c1O[C@@H](CN(C)Cc1ccc(C(F)(F)F)cc1)[C@H](C)CN([C@H](C)CO)C2=O	-0.18	1.8	-14	20
C[C@@H]1CN([C@H](C)CO)C(=O)Cc2cc(NC(=O)Cc3cn(C)c4ccccc34)ccc2O[C@H]1CN(C)Cc1ccc(Cl)c(Cl)c1	0.12	-1.2	32	-9
CC[C@H](C)C(=O)O[C@H]1CCC=C2C=C[C@H](C)C(CCC3C[C@@H](O)CC(=O)O3)[C@H]21 (stereo partly drawn)	0.027	/	-90	13
CC(C)NC(=O)N(C)C[C@@H]1Oc2ccc(NC(=O)Nc3ccc(F)cc3)cc2CC(=O)N([C@H](C)CO)C[C@@H]1C	0.011	/	-10	/
COc1ccccc1N1CCN(CC(O)COc2cccc3ccccc23)CC1 (stereo not drawn)	0.3	/	15	22
O=C(CSc1nnc2scc(-c3ccccc3)n12)Nc1nsc(-c2ccccc2)n1	/	1.0	51	/
C[C@@H]1CN([C@@H](C)CO)C(=O)c2cc(N(C)C)ccc2O[C@@H]1CN(C)S(C)(=O)=O	-0.074	0.8	5	-23
Cc1ccc(NC(=O)CC(N)C(=O)O)cc1 (stereo not drawn)	/	1.7	-14	/
Cc1ccc(S(=O)(=O)N(C)C[C@@H]2Oc3ccc(NC(=O)C4CC4)cc3CC(=O)N([C@H](C)CO)C[C@H]2C)cc1	0.14	0.1	2	-5

Molecules from the list above with a thiophene ring, fused or not:
SMILES	YB-1 expr inh	PD-1 reversal	MITF inhib	Shh pathway inh
COc1ccc(OC)c(NC(=O)c2c(NC(=O)CN3CCCC(C)C3)sc3c2CCC3)c1 (stereo not drawn)	/	-1.2	30	/
COC(=O)c1cc(-c2ccccc2)sc1NC(=S)Nc1cn(C)nc1C	/	-1.5	-3	/
CCOC(=O)c1cc(-c2ccccc2)sc1NC(=S)Nc1cnn(CC)c1C(N)=O	/	3.2	-36	/

Compounds shown so far that have a COOH group (four):
SMILES	YB-1 expr inh	PD-1 reversal	MITF inhib	Shh pathway inh
O=C(O)c1cc2cc(F)ccc2[nH]1	0.22	/	-10	-24
C[C@@H]1CN([C@H](C)CO)C(=O)c2cc(NC(=O)c3ccncc3)ccc2O[C@@H]1CN(C)Cc1ccc(C(=O)O)cc1	0.1	0.1	-6	-21
O=C(O)/C=C/c1ccc(-c2ccc(Br)cc2)o1	0.26	-0.7	-1	/
Cc1ccc(NC(=O)CC(N)C(=O)O)cc1 (stereo not drawn)	/	1.7	-14	/

Going on with the list.
SMILES	YB-1 expr inh	PD-1 reversal	MITF inhib	Shh pathway inh
Cc1noc(C)c1NC(=O)N(C)C[C@H]1Oc2ccc(NC(=O)Nc3ccc4c(c3)OCO4)cc2CC(=O)N([C@H](C)CO)C[C@H]1C	-0.68	/	1	-12
C[C@H](CO)N1C[C@H](C)[C@H](CN(C)C)Oc2ccc(NC(=O)CCCN(C)C)cc2C1=O	-0.021	5.0	-9	/
Cc1ccccc1NC(=O)c1ccc(OCC(=O)Nc2ccccc2C(F)(F)F)cc1	/	2.1	4	/
C[C@@H]1CCCCO[C@@H](CN(C)C(=O)NC2CCCCC2)[C@@H](C)CN([C@H](C)CO)C(=O)c2cc(NC(=O)CCC(F)(F)F)ccc2O1	0.31	-0.2	10	/
Cc1cc(C(=O)Nc2cccc3c2O[C@@H](CN(C)C(=O)Nc2cccc4ccccc24)[C@@H](C)CN([C@@H](C)CO)C3=O)n(C)n1	-0.49	-0.7	-2	/
C[C@@H]1CCCCO[C@@H](CN(C)C(=O)Cc2ccccc2)[C@@H](C)CN([C@H](C)CO)C(=O)c2cc(NC(=O)CCCN(C)C)ccc2O1	-0.29	/	2	12
C[C@H]1CN([C@@H](C)CO)C(=O)c2cc(NC(=O)CCCN(C)C)ccc2O[C@@H]1CN(C)C(=O)Nc1ccc2c(c1)OCO2	-0.079	0.6	-2	-40
C[C@@H]1CN([C@H](C)CO)C(=O)c2cccc(NC(=O)Nc3ccc(C(F)(F)F)cc3)c2O[C@@H]1CN(C)Cc1ccncc1	0.21	-0.7	-3	-8
C[C@H]1CN([C@@H](C)CO)C(=O)c2cccc(NS(=O)(=O)c3ccc(F)cc3)c2O[C@H]1CN(C)Cc1ccc(C(=O)O)cc1	-0.62	-1.0	-2	20
Cc1ccc(S(=O)(=O)N(C)CC(=O)Nc2ccccc2[N+](=O)[O-])cc1	/	1.5	7	/
C[C@@H]1O[C@@H](OC[C@H]2O[C@@H](OCCc3ccccc3)[C@H](O)[C@@H](O)[C@@H]2O)[C@H](O)[C@H](O)[C@H]1O	0.72	0.1	-8	-4
CN(CC(=O)O)C(=O)c1ccc(S(=O)(=O)N2CCCC2)cc1	/	2.2	-16	/
Cc1noc(C)c1NC(=O)N(C)C[C@@H]1Oc2c(NC(=O)c3ccc(-c4nccs4)cc3)cccc2C(=O)N([C@@H](C)CO)C[C@@H]1C	-0.014	/	-6	-29
C[C@H]1CN([C@@H](C)CO)C(=O)c2cccc(NC(=O)C3CCOCC3)c2O[C@@H]1CN(C)S(=O)(=O)c1cn(C)cn1	0.32	0.6	-1	32
C[C@@H]1CCCCO[C@@H](CN(C)C(=O)C2CCCCC2)[C@@H](C)CN([C@H](C)CO)C(=O)c2cc(NS(=O)(=O)c3ccccc3)ccc2O1	-0.45	/	54	/
C[C@H](CO)N1C[C@H](C)[C@@H](CN(C)S(=O)(=O)c2ccccc2)Oc2ccc(NC(=O)Nc3cccc4ccccc34)cc2C1=O	-0.017	-0.6	9	33
Cc1noc(C)c1NC(=O)N(C)C[C@@H]1Oc2c(NS(=O)(=O)c3ccc(Cl)cc3)cccc2C(=O)N([C@@H](C)CO)C[C@@H]1C	-0.29	2.0	-13	-3
O=C(O)C1CCCCC1C(=O)Nc1ccc(S(=O)(=O)N2CCCCC2)cc1 (stereo not drawn)	/	1.9	5	/
C[C@@H]1CCCCO[C@@H](CN(C)C)[C@@H](C)CN([C@H](C)CO)C(=O)c2cc(NC(=O)NC3CCCCC3)ccc2O1	0.66	-0.1	0	37
COC(=O)c1cccc(NC(=O)CN(c2ccc(Br)c(C)c2)S(C)(=O)=O)c1C	/	0.2	-108	/
C[C@@H]1CN([C@@H](C)CO)C(=O)c2cc(NC(=O)CCCN(C)C)ccc2O[C@@H]1CN(C)Cc1ccncc1	-0.27	0.4	4	-14
C[C@@H]1CN([C@H](C)CO)C(=O)c2cccc(NC(=O)c3cnccn3)c2O[C@H]1CN(C)C(=O)Nc1cccc2ccccc12	-0.29	0.8	0	-27
Cc1ccc(OCC(=O)Nc2cc(Cl)ccc2N2CCOCC2)c(C)c1	/	-2.0	26	/
O=C(NCC(O)c1ccccc1)c1ccc(Cl)c(S(=O)(=O)N2CCOCC2)c1 (stereo not drawn)	/	0.9	-7	/
CCC/C=C/C=C/C1C[C@@H](O)[C@@H](O)C(=O)[C@H]1CO (stereo partly drawn)	-0.38	1.2	8	-22
COc1ccc(S(=O)(=O)Nc2ccc3c(c2)C(=O)N([C@H](C)CO)C[C@H](C)[C@H](CN(C)C(=O)NC(C)C)O3)cc1	0.33	0.5	1	/
C[C@H]1CN([C@@H](C)CO)C(=O)c2cc(NC(=O)Cn3cnnn3)ccc2O[C@H]1CN(C)C(=O)Nc1ccccc1	-0.28	0.7	7	-11

Assay outcomes: PubChem, Broad Institute
